Bioassay records: PubChem BioAssay, National Center for Advancing Translational Sciences (NCATS)
Rango release inh = qHTS Assay for Inhibitors of RanGTP induced Rango (Ran-regulated importin-beta cargo) - Importin beta complex dissociation; Snurportin-1 (Homo sapiens) + GTP-binding nuclear protein Ran (Homo sapiens) + Importin …; Biochemical FRET Rango-importin beta, RanGTP-induced dissociation; Potency, µM (titrated, usually from 46.1 µM), without a hit: top-dose activity change, negative = inhibition; 340,000 tested, 0.071% active; AID 540253, 2011; active means falling FRET ratio curve, often poorly fitted, with flat reads before Ran was added; inconclusive means other falling curves, or compound fluorescence or quenching; inactive means flat or rising ratio curve;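 further: potency means the concentration at half of the fitted maximal effect; % of control where 0% means no effect; nearly all actives have a fitted effect of over 45% in size; -100% = wells without RanGTP and RCC1; the record marks most hits as doubtful in a second field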
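Compounds preincubate 5 min with complex of recombinant Rango and importin beta in PBS with 1 mM DTT. Ran (0.6 uM) loaded with 2 mM GTP plus 0.2 uM RCC1 starts dissociation; FRET is recorded 45 min later.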
Rango-impB inh = qHTS Assay for Inhibitors of Rango (Ran-regulated importin-beta cargo) - Importin beta complex formation | Importin subunit beta-1 (Homo sapiens), Q14974 | Rango CFP/YFP FRET sensor + importin beta, 45 min | Potency, µM (top dose mostly 92.2 µM), for the others: at the top dose inhibition of complex formation | 340,000 tested, 0.031% active; active = rising FRET ratio curve, often small or poorly fitted; inconclusive = mostly compound fluorescence or quenching in the first reads; inactive = flat curves in all reads;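 further: potency means the concentration at half of the fitted maximal effect; 0% = DMSO wells and 100% = buffer wells lacking importin beta; nearly all actives have a fitted effect of over 15% in size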
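FRET biosensor (snurportin 1 IBB flanked by EYFP and cerulean), 50 nM, with compound 5 min, then 0.125 microM importin beta in PBS, 1 mM DTT, 0.02% Tween-20, 0.1% BSA. CFP/YFP ratio read after 45 min at room temperature; pre-read flags interference.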
miR-21 FLuc = qHTS Assay for Modulators of miRNAs and/orActivators of miR-21. HeLa miR-21 FLuc reporter, luciferase, 48 h. Potency, µM (series often up to 38.3 µM), for the others: top-dose reporter change, positive = more light. 340,000 tested, under 10 active. AID 2288, 2010; active = well fitted rising curve with a large enough effect; inconclusive = small, poorly fitted or top-dose-only effect; inactive = no such curve, though single readings can be large or run the other way;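 further: % of control where 0% means no effect; miR-21 action dims this reporter so a rising signal means less miR-21 action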
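HeLa cells endogenously expressing miR-21, stably carrying CMV-driven firefly luciferase with a downstream miR-21 binding site, 2000 cells/well. Titrations up to approximately 40 uM, 48 hours; luciferase luminescence read.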
GLA inh pH 4.5 = qHTS Assay for Inhibitors of Human alpha-Galactosidase at pH 4.5. Alpha-galactosidase A (Homo sapiens), P06280. purified enzyme, 4-MU-alpha-Gal fluorescence, pH 4.5. 230,000 tested, under 10 active. AID 1467, 2008. activity change, negative = inhibition, % at 105 µM; inconclusive = small, poorly fitted or top-dose-only inhibition, or a rising curve; inactive = flat fitted curve, though single readings scatter; no compound was filed as active;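 further: 0% = full activity with enzyme and -100% = basal without enzyme; dose as in the result columns while the protocol names 77 µM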
Target sequence (P06280 whole entry, looked up): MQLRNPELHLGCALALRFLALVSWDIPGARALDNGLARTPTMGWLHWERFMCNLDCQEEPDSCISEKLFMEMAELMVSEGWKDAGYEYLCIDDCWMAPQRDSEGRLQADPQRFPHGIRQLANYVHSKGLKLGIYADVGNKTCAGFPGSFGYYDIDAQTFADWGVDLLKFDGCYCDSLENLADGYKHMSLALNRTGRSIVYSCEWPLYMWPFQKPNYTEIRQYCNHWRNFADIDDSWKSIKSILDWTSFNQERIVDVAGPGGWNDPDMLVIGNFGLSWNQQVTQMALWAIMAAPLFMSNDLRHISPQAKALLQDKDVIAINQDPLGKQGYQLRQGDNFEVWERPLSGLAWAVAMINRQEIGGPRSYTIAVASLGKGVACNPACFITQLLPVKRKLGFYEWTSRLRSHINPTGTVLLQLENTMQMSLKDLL
* = called active by the depositor; u = inconclusive; x = not tested or not shown; [ ] = dose if it differs, or a comment. The list is partial; count on the stated rates, not on these rows.

Preview, eleven compounds:
smiles,Rango release inh,GLA inh pH 4.5,Rango-impB inh,miR-21 FLuc
O=C(NCc1ccc2c(c1)OCO2)c1ccc(Cl)s1,-4%,-10,4.6%,-35%
CCOc1ccc(N2C(=O)CNC2=S)cc1,-3%,2,-6.2%,0%
CCCNC(=O)CSc1nc(Cc2ccccc2)nc2ccccc12,8%,x,1.7%,-2%
CC(=O)OC[C@H]1O[C@@H](O[C@H]2C[C@]3(C)C(C[C@@H](O)C4C([C@]5(C)CC[C@@H](C(C)(C)O)O5)CC[C@]43C)[C@@]3(C)CC[C@H](O)C(C)(C)C23)[C@H](O[C@@H]2O[C@@H](C)[C@H](O)[C@@H](O)[C@H]2O)[C@@H](O)[C@@H]1O (stereo partly specified),-10%,x,-0.6%,x
CC(C)(C)c1nnc(NC(=O)C2CC(=O)N(CCc3ccc(F)cc3)C2)s1 (stereo unspecified),-6%,x,1.4%,-4%
O=C(Nc1ccccc1Cl)Nc1ccnn1C1CCN(C(=O)c2cscn2)CC1,-10%,x,5.0%,1%
CN1C[N+]([O-])=C(c2ccccc2)C1(C)C,3%,6,-3.5%,-1%
CN1CCCC(OC(=O)c2ccc(C(C)(C)C)cc2)C1 (stereo unspecified),-10%,x,-1.3%,-7%
COc1cccc(-c2[nH]nc3c2C(c2ccoc2)C(C#N)=C(N)O3)c1 (stereo unspecified),8%,-18,-0.8%,-1%
COC(=O)CSc1nnc(-c2ccc(S(=O)(=O)NCc3ccccc3Cl)cc2)o1,8%,7,-0.5%,0%
CCOC(=O)c1cnn(-c2nc(-c3ccccc3)nc3c2COC(C)(C)C3)c1N,-6%,2,3.4%,-11%

All compounds of this part (from the top)
smiles,Rango release inh,GLA inh pH 4.5,Rango-impB inh,miR-21 FLuc
O=C(NCc1ccc2c(c1)OCO2)c1ccc(Cl)s1,-4%,-10,4.6%,-35%
CCOc1ccc(N2C(=O)CNC2=S)cc1,-3%,2,-6.2%,0%
CCCNC(=O)CSc1nc(Cc2ccccc2)nc2ccccc12,8%,x,1.7%,-2%
CC(=O)OC[C@H]1O[C@@H](O[C@H]2C[C@]3(C)C(C[C@@H](O)C4C([C@]5(C)CC[C@@H](C(C)(C)O)O5)CC[C@]43C)[C@@]3(C)CC[C@H](O)C(C)(C)C23)[C@H](O[C@@H]2O[C@@H](C)[C@H](O)[C@@H](O)[C@H]2O)[C@@H](O)[C@@H]1O (stereo partly specified),-10%,x,-0.6%,x
CC(C)(C)c1nnc(NC(=O)C2CC(=O)N(CCc3ccc(F)cc3)C2)s1 (stereo unspecified),-6%,x,1.4%,-4%
O=C(Nc1ccccc1Cl)Nc1ccnn1C1CCN(C(=O)c2cscn2)CC1,-10%,x,5.0%,1%
CN1C[N+]([O-])=C(c2ccccc2)C1(C)C,3%,6,-3.5%,-1%
CN1CCCC(OC(=O)c2ccc(C(C)(C)C)cc2)C1 (stereo unspecified),-10%,x,-1.3%,-7%
COc1cccc(-c2[nH]nc3c2C(c2ccoc2)C(C#N)=C(N)O3)c1 (stereo unspecified),8%,-18,-0.8%,-1%
COC(=O)CSc1nnc(-c2ccc(S(=O)(=O)NCc3ccccc3Cl)cc2)o1,8%,7,-0.5%,0%
CCOC(=O)c1cnn(-c2nc(-c3ccccc3)nc3c2COC(C)(C)C3)c1N,-6%,2,3.4%,-11%
CCOC(=O)N1CCC(NC(=O)c2cc(C(=O)Nc3ccc(OCC)cc3)ccc2CO)CC1,1%,2,-5.7%,-13%
CC(=O)OCCN(CCOC(C)=O)c1c(C)[nH]c(=O)[nH]c1=O,10%,2,2.9%,-5%
CCC(C)(C)C1CCC(=NNC(=S)Nc2ccccc2)CC1 (stereo unspecified),0%,3[21.1 µM],0.1%,-38%
COc1ccc2c(c1)c(C(=O)N/N=C/c1ccc(OC)c(OC)c1)c(C)n2C,-8%,8,-1.9%,-13%
Cc1cc(Nc2ccc([N+](=O)[O-])cc2)nc2ccccc12,u,-4,0.0%,-10%
O=C(O)c1ccc(NC(=S)NC(=O)c2ccc(-c3ccc(Br)cc3)o2)cc1,-12%,x,1.0%,-7%
COc1ccc(C2C(C(=O)c3ccco3)=C(O)C(=O)N2c2nnc(C)s2)cc1OC (stereo unspecified),-28%,x,-2.4%,3%
Cc1cccc(C(=O)NNC(=O)c2ccccc2C)c1,22%,-1,13%,-26%
CCCOC(=O)Nc1cccc(C(C)=O)c1,4%,-1,0.8%,-12%
COc1ccc(CC(=O)Nc2cc(C)ccn2)cc1OC,1%,x,u,x
COc1cc(OC)cc(C(=O)O/N=C(\N)c2ccncc2)c1,-12%,-9,0.3%,-26%
CCOc1cc(/C=N/NC(=O)C(=O)N2CCCC2)ccc1O,3%,-27,-1.0%,8%
COCC(=O)NCc1nc2ccccc2[nH]1,-1%,3,-5.3%,-2%
CC(C)C(OC(=O)c1nsc(Cl)c1Cl)C(=O)NCc1ccccc1 (stereo unspecified),0%,x,3.1%,-1%
CCCc1ncc(C(O)(c2ccccc2)c2ccccc2)n1C,2%,-14,6.6%,-2%
COc1ccc(/C=C2\Sc3ccc(C(=O)NCC4CCCO4)cc3N(C)C2=O)cc1 (stereo unspecified),8%,x,-1.6%,-8%
COCC(=O)Nc1c(C(=O)Nc2ccc3c(c2)OCCO3)oc2ccccc12,3%,-8,-4.9%,-31%
CC(C)c1c(C(=O)N/N=C/c2cccs2)nnn1-c1nonc1N,-4%,x,0.3%,-9%
CCOC(=O)COc1ccc(CCNC(C)=O)cc1,-4%,0,-1.6%,-2%
Cc1ccc(C)c(-n2c(Cc3cccs3)n[nH]c2=S)c1,-1%,-10,-5.6%,2%
OC(CN1CCOCC1)Cn1c2c(c3ccccc31)CCCC2 (stereo unspecified),0%,x,-0.5%,-15%
CCN(CC)CCN1C(=O)C(=O)/C(=C(/O)c2ccc(F)cc2)C1c1cccnc1 (stereo unspecified),7%,3,1.5%,2%
COc1cc(/C=C/C(=O)OCC(=O)NC(=O)NCc2ccco2)ccc1OC(F)F,0%,x,4.7%,x
COc1cccc(C(=O)NCC2CCCN(C(=O)c3ccc(C=O)cc3)C2)c1OC (stereo unspecified),3%,x,1.1%,-2%
Cc1cc(C)n(CC(O)Cn2cnc3c2c(=O)n(C)c(=O)n3C)n1 (stereo unspecified),9%,-6,-1.8%,1%
CC(C)(C)n1nnnc1C(c1ccc(Cl)cc1)N(Cc1cccnc1)Cc1ccco1 (stereo unspecified),1%,-4,-1.2%,27%
CC(C)C(NC(=O)c1ccc2c(c1)OCCO2)c1nc2ccccc2[nH]1 (stereo unspecified),18%,x,4.9%,3%
O=C(CCl)N(c1ccccc1)C1CCCCC1,-6%,-2,1.5%,u
COC(=O)c1sccc1-n1cccc1C(=O)C(=O)N1CC(C)OC(C)C1 (stereo unspecified),-3%,4,4.0%,-1%
C[C@H](CO)N1C[C@H](C)[C@@H](CN(C)S(=O)(=O)c2ccc(F)cc2)Oc2ccc(NC(=O)C3CC3)cc2C1=O,-24%,x,-3.7%,x
COc1ccc(/C=N/NC(=O)CN2CCN(Cc3ccccc3)CC2)cc1Br,-14%,-6,-0.7%,-10%
CCCOc1ccc(C(=O)CCC(=O)OCC(=O)N2CC(=O)Nc3ccccc32)cc1,-12%,-3,-1.2%,-8%
O=C(NCc1ccccc1)c1onc(CSc2ccccc2)c1C(=O)NCc1ccccc1,-6%,x,-1.0%,x
CNS(=O)(=O)c1cc(NC(C)=O)c(C)cc1C,-15%,24,-4.5%,-9%
OCCc1c[nH]c2ccc(OCc3ccccc3)cc12,-13%,x,-1.2%,-18%
CCn1c(O)c(C=Nc2ccccc2)n(-c2ccccc2)c1=S,-14%,0,u,-11%
Cc1c(N(C)S(=O)(=O)c2cccc(C(=O)NC(C)C)c2)c(=O)n(-c2ccccc2)n1C,-7%,x,-1.5%,8%
CN(C)c1nc(N)c([N+](=O)[O-])c(NCC2CCCO2)n1 (stereo unspecified),-10%,-3,1.0%,-27%
CC(NC(=O)c1cccnc1)C(=O)N1CCCCC1 (stereo unspecified),-12%,4,-0.1%,-2%
Cc1nnc(SCC(=O)Nc2ccc(S(=O)(=O)N3CCCCC3)cc2)s1,2%,9,-0.3%,-5%
COC(=O)c1cc(COC(=O)CNC(=O)c2ccc(Br)cc2)oc1C,-1%,x,5.8%,x
COc1ccc(OC)c(NC(=O)C(=O)NNC(=O)C23CC4CC(CC(C4)C2)C3)c1,17%,-3,4.6%,0%
CCN(c1ccc(OC)cc1)S(=O)(=O)c1nnc(NC(=O)COc2ccc(C)cc2)s1,56%,x,-2.7%,2%
CCOc1ccc(-n2nnnc2SCC(=O)N2CCOCC2)cc1,4%,-6,-4.0%,-6%
CSc1nc2nc3c(cc2c(=O)n1-c1ccccc1)COC(C)(C)C3,-13%,1,-2.9%,-3%
Cc1ccc(C(=O)/C=C/c2ccc3c(c2)OCCO3)c(O)c1,-6%,-2,2.5%,-63%
Fc1ccc(-n2cnnn2)c(F)c1,-9%,-1,0.1%,-3%
Cc1ccc(-c2ccc(=O)n(CC(=O)Nc3ccc4c(c3)OCCO4)n2)cc1,-7%,5,0.0%,-5%
CS(=O)(=O)N(Cc1ccc(C(=O)NC2CCCCC2O)cc1)c1ccccc1 (stereo unspecified),16%,4,0.0%,-1%

(list continues)
smiles,Rango release inh,GLA inh pH 4.5,Rango-impB inh,miR-21 FLuc
Cc1ccc(S(=O)(=O)N2CCN(CCC#N)CC2)cc1,-15%,-3,0.2%,-1%
COc1cccc(CC2(CO)CCCN(Cc3ccccc3-c3ccco3)C2)c1 (stereo unspecified),-10%,0,0.3%,1%
COc1ccccc1C(=O)NNC(=O)C(=O)Nc1cccc(Cl)c1C,5%,x,-2.8%,-1%
COC(=O)c1cc(NS(=O)(=O)c2ccc(C)c3ccccc23)ccc1N1CCOCC1,16%,-8,9.6%,-2%
O=C1NC2(CCCCC2)C(=O)N1/N=C/c1ccccc1Br,-3%,3,-5.2%,-41%
C=CCNC(=O)c1onc(CSc2ccccc2)c1C(=O)O,-3%,10,-0.4%,-9%
O=C(Nc1ccccc1C(=O)N1CCOCC1)C1CC(=O)N(c2ccc(F)cc2)C1 (stereo unspecified),2%,x,-1.1%,-7%
CCOc1ccc(CCNC(=O)C2CC(=O)N(CCc3ccccc3)C2)cc1OCC (stereo unspecified),8%,x,0.5%,-4%
COc1ccc2c(c1)/C(=C\c1cccc(/C=C3/C(=O)Nc4ccc(OC)cc43)n1)C(=O)N2,-11%,x,0.1%,x
Oc1ccc(NCc2cccc(OCc3ccccc3)c2)cc1,-15%,-5,4.0%,2%
CCOCCOC(=O)c1cccc2c1-c1ccccc1C2=O,0%,x,0.5%,-6%
COc1ccc2cc(CCNS(=O)(=O)c3c(C)cc(C)cc3C)c(=O)[nH]c2c1,-1%,x,-2.7%,-5%
c1ccc(Cn2c(-c3cncs3)nc3ccccc32)cc1,5%,-3,0.0%,-25%
CCN(CC)C(=O)N1CCC(NC(=O)Cc2ccccc2)CC1,2%,9,-0.4%,-6%
COc1ccc(-c2cc(=O)oc(-c3cccc(C)c3)n2)cc1,-4%,2,u,0%
Cc1ccc(CCNC(=O)CCNS(=O)(=O)c2ccc3c(c2)oc(=O)n3C)cc1,9%,0,4.0%,-8%
COc1ccc(N(CC(=O)NC2CCCCC2)C(=O)CCCC(=O)Nc2ccccn2)cc1,u,x,u,10%
